# Source: PubChem BioAssay (several laboratories)
# ugtP null kill = kills S. aureus RN4220 lacking UgtP; S. aureus RN4220 ugtP deletion, OD600 growth, 16 h; some inactives read as strong as hits; growth inhibition, % (concentration not given with the values); 330,000 compounds, 0.54% hits;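 active = z-score under -3 and OD600 up to 0.15 on both plates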;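 also: plate controls were untreated wells for no effect and antibiotic for full effect; wells of about 80 µL received 100 nL stock; the first replicate is given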
# BJeLR lethal = kills HRASV12-expressing BJeLR cells; BJeLR (HRASV12) viability, CellTiter-Glo ATP luminescence, 48 h; reference of the scale not given here; inhibition, % (no concentration beside the values); 300,000 compounds, 0.17% hits; AID 1554;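 active = replicate mean above 50%; inconclusive = above 50% but judged a plate artefact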;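 also: 50 nL library stock added to about 25 µL; numbers are from one replicate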
# Mtb hypoxia inh = inhibitors of hypoxia-regulated fluorescent reporter in Mycobacterium tuberculosis. fluorescence inhibition, % (concentration not given with the values). 300,000 compounds, 0.1% hits. AID 1159583. M. tuberculosis hypoxia-regulated fluorescent reporter, fluorescence;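 active = 35 to 45% if threefold the growth effect, above 45% if 1.5-fold the growth effect; inactive = the rest, general growth blockers included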;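 also: wells of about 50 µL received 100 nL stock; 0% = vehicle wells and 100% = reference inhibitor wells; whole bacteria with a GFP reporter of the hypoxia response; strong numbers were not always called active; many hits fall short of the cut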
# RN4220 kill = S. aureus RN4220 growth inhibition. AID 1259311. OD600, 16 h. inhibition, % (concentration not given with the values). 330,000 compounds, 0.33% hits;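 active = z-score of -3 or lower and OD600 up to 0.18 on both plates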;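 also: plate controls were untreated cells for no effect and reference antibiotic for full effect; stock transfer was 100 nL into about 80 µL; one replicate is shown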
# Autofluor counter = flagged as autofluorescent in microsphere protease counterscreen | compound autofluorescence counterscreen, microsphere flow cytometry; active compounds read high | fluorescence intensity (no concentration beside the values) | 360,000 compounds, 3.1% hits;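 active = at least 3 SD above the mean of all compounds, about 16000 in these data; inconclusive = too few beads counted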;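 also: 100 nL of 1 mM stock went into each well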
# PrP UTR inh = suppresses PrP 5' UTR mRNA reporter expression. 340,000 compounds, 0.35% hits. inhibition, % (test concentration not listed). cell-based PrP 5' UTR mRNA reporter, plate reader;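 active = every replicate at 50% or more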;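 also: 0 = median of the neutral control wells; tested in H4 reporter cells; numbers are from one replicate; inactives centre near -14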
# Mtb hypoxia inh growth = recorded beside Mtb hypoxia inh, whose call it bears; growth inhibition, %; measured here: M. tuberculosis growth (absorbance);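 0% = vehicle and 100% = reference antibiotic; read after six days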
# * hit, by the source's call; ? = inconclusive; . = not tested or not shown; & = joins results of further samples. Compounds were not picked by outcome, and some 4% of all compounds hit somewhere here.
SMILES,ugtP null kill,BJeLR lethal,Mtb hypoxia inh,Mtb hypoxia inh growth,RN4220 kill,Autofluor counter,PrP UTR inh
Cc1cccc(NC(=S)NC2CCSc3ccccc32)c1 (stereo not drawn),6,3,7,-5,1.8,4209,-12
Cc1ccc(C(=O)NC(N)=Nc2nc3ccccc3o2)cc1,-9,.,3,16,1.6,.,.
CCOC(=O)c1c(S(=O)(=O)NCC(=O)N2CCN(c3ccccc3)CC2)c(C)n(C)c1C,3,6,10,6,1.7,5894,-28
O=C(O)c1ccn2c(C(=O)c3ccc(Cl)cc3)c(-c3ccccc3)cc2c1,.,-2,.,.,.,?,2
COc1cc(S(=O)(=O)NCCCn2ccnc2)ccc1F,-4,-14,-2,5,-0.9,3759,-15
CCc1ccc(-c2cc(C)no2)cc1S(=O)(=O)N1CCN(c2ccc(OC)cc2)CC1,34,0,9,15,1.6,5572,-7
CCOc1ccc2ccc(OCC)c(C=Nn3cnnc3)c2c1,10,.,15,-14,0.3,.,.
CC(C)Cn1c2c(c(O)c(C(=O)Nn3c(Cc4ccccc4)nc4ccccc4c3=O)c1=O)CCCC2,-20,-7,-5,-2,-1.5,2990,0
Cc1ccc(S(=O)(=O)Nc2ccc(NC(=O)c3ccc(F)cc3)cc2)cc1,5,0,10,2,4.3,3399,-19
Cc1ccc(Nc2nc3ccccc3c(=O)[nH]2)cc1C,-17,-2,6,-1,-4.1,4847,-30
CC(C)C(=O)N1CCC2(CC1)Oc1ccc(F)cc1C(=O)C21CC(c2ccc(Cl)cc2)=NO1 (stereo not drawn),-1,-6,4,3,3.0,3910,0
COc1cccc(NC(=O)CCNC(=O)c2ccccc2Cl)c1,4,3,-4,-1,1.4,4040,-43
CCOc1ccc(C2C(C(=O)c3ccco3)=C(O)C(=O)N2Cc2cccnc2)cc1OC (stereo not drawn),4,-1,6,7,5.5,2777,-1
Cc1cccc(CSc2[nH]c(=O)ncc2C)c1,13,9,2,-6,2.0,4184,-12
CC1Oc2ccccc2C=C1/C=N/NC(=O)c1ccccc1O (stereo not drawn),.,3,.,.,.,2036,-11
O=C(CSc1nc2ccccc2c(=O)n1CCCO)NCc1ccccc1,6,3,19,6,7.5,6880,-16
O=C(CO/N=C/c1ccc(Cl)cc1Cl)NNC(=O)c1cccc(Cl)c1,.,-10,.,.,.,4497,-16
CCOc1ccccc1/C=N/n1c(COc2ccccc2)n[nH]c1=S,.,7,.,.,.,2952,-7
CCOC(=O)C1=C(O)CSC1=Nc1cccc2ccccc12,.,-4,.,.,.,7141,-2
c1ccc(-c2nc(NCC3CCCO3)c3oc4ccccc4c3n2)cc1 (stereo not drawn),-22,2,0,4,9.1,23676*,-11
Fc1ccccc1N1CCN(Cc2cc(-c3ccccc3)on2)CC1,3,2,-1,4,1.1,3052,0
CC(=O)Nc1ccc(/C=C/c2ccc3cccc([N+](=O)[O-])c3n2)cc1,1,12,5,12,0.8,4837,-26
Cn1cnnc1Sc1ccc(C(=O)NCCC23CC4CC(CC(C4)C2)C3)cc1[N+](=O)[O-],-2,9,2,2,3.5,2150,-16
CCN(C(=O)CSc1ccc2ccccc2n1)C1CCS(=O)(=O)C1 (stereo not drawn),-1,-16,-3,2,1.1,3933,3
CC1(C)Cc2ccccc2C2CC(O)C(=O)N21 (stereo not drawn),19,5,3,2,7.9,6345,-13
O=C(CSc1nncs1)NC(=O)NCc1ccccc1,2,-4,3,7,2.5,4521,-33
CCC1CCCCN1Cc1ccc(OC)c(OC)c1 (stereo not drawn),8,-1,9,4,2.4,10929,-24
O=C(O)CCCc1c(-[n+]2ccccc2)[nH]c2ccccc12,16,9,5,2,7.7,4439,2
CCOc1ccc(S(=O)(=O)NCCC(=O)NCc2ccncc2)cc1,11,-5,3,-8,1.0,5202,-22
COc1cc2c(cc1OC)CN(C(=O)CSc1nnc(C)s1)CC2,-2,0,1,3,1.6,4771,-10
CCN1CCN(C(c2cccc(OC)c2OC)c2nnnn2Cc2ccco2)CC1 (stereo not drawn),8,-2,12,1,2.8,4815,-20
COc1ccc(OCC(NS(=O)(=O)c2ccc(-n3cnnn3)cc2)C(C)C)cc1 (stereo not drawn),-1,8,5,3,3.4,6298,-11
C=CCNC(=O)COC(=O)c1ccc(Cl)c(S(=O)(=O)N(Cc2ccccc2)c2ccccc2)c1,10,-2,-3,4,9.0,2616,-20
O=C(CN1CCN(C(=O)c2c(F)cccc2F)CC1)Nc1ccccc1C(F)(F)F,3,-2,-12,-1,3.0,3170,-21
COC(=O)c1ccc(NC(=O)Nc2ccc([N+](=O)[O-])cc2)cc1,-11,-7,-1,6,36,3777,-32
CC(C)(C)C(=O)NCCc1nc2ccccc2n1CC(=O)c1ccc(Cl)cc1,-13,2,4,13,-1.4,6606,3

# A few values from the list:
# RN4220 kill, c1ccc(-c2nc(NCC3CCCO3)c3oc4ccccc4c3n2)cc1 (stereo not drawn) reads 9.1
# Autofluor counter, CCN1CCN(C(c2cccc(OC)c2OC)c2nnnn2Cc2ccco2)CC1 (stereo not drawn) reads 4815

# Three compounds already listed, ordered by number of heavy atoms, descending:
SMILES,ugtP null kill,BJeLR lethal,Mtb hypoxia inh,Mtb hypoxia inh growth,RN4220 kill,Autofluor counter,PrP UTR inh
O=C(CN1CCN(C(=O)c2c(F)cccc2F)CC1)Nc1ccccc1C(F)(F)F,3,-2,-12,-1,3.0,3170,-21
CC(C)(C)C(=O)NCCc1nc2ccccc2n1CC(=O)c1ccc(Cl)cc1,-13,2,4,13,-1.4,6606,3
O=C(O)CCCc1c(-[n+]2ccccc2)[nH]c2ccccc12,16,9,5,2,7.7,4439,2

# More results follow:
SMILES,ugtP null kill,BJeLR lethal,Mtb hypoxia inh,Mtb hypoxia inh growth,RN4220 kill,Autofluor counter,PrP UTR inh
CCN(CC)S(=O)(=O)c1ccc(O)c(C(=O)OCC(=O)N2c3ccccc3CC2C)c1 (stereo not drawn),3,2,-9,-3,-0.5,4630,-13
O=C(O)c1ccc(N2CCN(C(c3ccccc3)c3ccccc3)CC2)c([N+](=O)[O-])c1,47,-3,-1,1,8.3,2910,.
C#CCOCCOCCOCCNc1nc(N2CCN(C(=O)C(Cc3ccc(O)cc3)n3cc(CCO)nn3)CC2)nc(N2CCN(C(=O)C(C(C)CC)n3cc(CCCN=C(N)N)nn3)CC2)n1 (stereo not drawn),6,.,-2,14,0.6,.,.
COC(=O)c1nnn(-c2nonc2N)c1CN1CCCC1,-1,-1,4,6,3.7,3661,-25
Cc1ccccc1C1NC(=O)c2ccccc2O1 (stereo not drawn),14,-3,-1,2,7.2,2791,4
CCC(C)(C)NC(=O)C(c1ccc(F)cc1)N(Cc1cccs1)C(=O)c1cnccn1 (stereo not drawn),6,0,8,13,-1.7,3257,-6
CCCn1c(N)c(C(=O)CSc2nc(C)cs2)c(=O)[nH]c1=O,-5,4,.,.,3.5,2367,-6
COCCNC(=O)CCc1c(C)nc2c(c(C)nn2-c2ccc(C)c(C)c2)c1C,-5,11,12,21,4.6,3664,-9
CCN1CCC(NC(=O)Nc2cccc(C(F)(F)F)c2)CC1,3,3,-1,1,-4.7,2212,-23
COc1ccc(OCCCC(=O)ON=C(N)c2ccccc2C)cc1,5,.,9,-4,3.5,7979,-6
COc1ccc2c(c1OC)CCC2=O,0,-10,8,15,2.3,4455,-34
O=C1c2ccccc2C(=O)N1N=Cc1ccc(O)c(O)c1,4,.,18,5,6.8,.,.
Cn1c2ccccc2c(=O)c2c(O)cccc21,5,-5,2,-7,1.7,3801,-17
CN1CC(=O)N(CC(=O)Nc2cc(Cl)cc(Cl)c2)C1=O,0,4,13,8,6.1,4598,-23
Cc1ccc(S(=O)(=O)NCC(NCc2ccc(F)cc2)c2ccccc2)cc1 (stereo not drawn),48,.,-1,13,68,5564,-2
CCOc1ccc(Nc2ccc3nonc3c2[N+](=O)[O-])cc1,5,1,8,0,14,3100,3
Cc1ccc(NC(=O)C2CC(=O)N(Cc3ccccc3)C2)cc1S(=O)(=O)N1CCCCCC1 (stereo not drawn),-6,-10,1,4,3.8,2183,-34
Cc1cc(=O)[nH]c(SCC(=O)Nc2ccnc3ccccc23)n1,6,-8,15,3,5.2,4724,-23
CCC(c1nnnn1C(C)(C)CC)N(CCCO)Cc1cc2cccc(C)c2[nH]c1=O (stereo not drawn),9,-2,.,.,-1.3,2903,2
O=C(CCCn1nnnc1CN1CCOCC1)N1CCC(c2ccc(F)cc2)C1 (stereo not drawn),-1,-8,-4,12,0.8,5805,1
Cc1ccc(NC(=O)Cn2cc([N+](=O)[O-])nc2C)cc1C,4,-3,-8,1,0.8,4175,-33
OCC1(Cc2ccccc2)CCCN(Cc2ccc(-c3ccco3)cc2)C1 (stereo not drawn),1,0,8,10,5.9,6986,-40
OCCN1CCN(CC(O)COc2ccc(Cl)cc2)CC1 (stereo not drawn),8,-2,8,5,6.0,2754,2
C=CCn1c(SCn2nnc3ccccc3c2=O)nnc1-c1ccc(F)cc1,2,-17,13,7,4.8,9129,-7
Cc1cc(N2C(=O)C(O)=C(C(=O)c3ccco3)C2c2cccc(Oc3ccccc3)c2)no1 (stereo not drawn),.,-2,.,.,.,4100,-17
CCc1ccccc1NC(=O)Nc1ccc(F)cc1F,2,6,-6,10,2.3,2091,1
Cc1cc(C=Nn2c(COc3ccccc3C)nc3ccccc3c2=O)c(O)c([N+](=O)[O-])c1,-10,.,5,-1,11,.,.
CC1=C/C(=N\N=C2\NC(=O)C(CC(=O)Nc3ccccc3)S2)CC(C)(C)C1 (stereo not drawn),.,7,.,.,.,3476,-9
Cc1c(Cl)c([N+](=O)[O-])nn1CC(=O)NCCCN1CCOCC1,4,-2,3,-3,3.1,5960,-15
c1ccc(C2CN3CCSC3=N2)cc1 (stereo not drawn),7&3,-1,9&4,10&1,3.1&11,6008,-29
Cc1nc(-c2ccc(F)cc2)c(CC(=O)N2CCN(S(=O)(=O)c3cccc(F)c3)CC2)s1,-4,3,-6,10,-1.1,5490,8
Cc1cc(C(=O)COC(=O)c2ccc(O)cc2)c(C)n1Cc1ccco1,7,1,-1,1,4.4,2301,-106
COc1ccccc1C(=O)Nn1c(C)nc2ccccc2c1=O,-1,-10,3,3,1.3,3597,-22
Clc1ccc(-c2ccc(C=NNc3cc(N4CCOCC4)nc(N4CCOCC4)n3)o2)cc1,23,.,-4,10,29,.,.
NS(=O)(=O)c1ccc(CNC(=O)c2ccc(Cl)cc2[N+](=O)[O-])cc1,3,-3,-3,6,4.0,2673,-5
O=C(CCc1ccccc1)NCCCN1CCOCC1,6,-1,.,.,7.1,3514,-4
COc1cnn(-c2ccccc2)c(=O)c1N(C)C,4,9,8,2,2.9,10096,.
NC(=O)c1ccc(N2CCN(S(=O)(=O)c3cccs3)CC2)c([N+](=O)[O-])c1,9,.,26,45,10.0,2972,-21
COc1ccc(NC(=S)NNC(=O)c2cccnc2)cc1OC,10,2,7,1,7.1,4141,-26
COc1ccc(Cn2c(C)nc([N+](=O)[O-])c2SCC(=O)O)cc1[N+](=O)[O-],1,1,-4,3,1.2,3301,-16
Cc1csc(NC(=O)c2cccn2C)n1,14,17,9,12,6.7,5614,-81
CCOc1ccc(NC(=O)C/C(C)=N/NC(=O)Cc2ccc(Cl)cc2)cc1,.,1,.,.,.,3344,-39
O=C(COC(=O)C1COc2ccccc2O1)NC1CCS(=O)(=O)C1 (stereo not drawn),4,10,.,.,4.2,3880,-14
N#Cc1ccc(OCC(=O)Nc2ccc3[nH]c(=O)[nH]c3c2)cc1,2,-1,10,5,4.4,4768,-22
COc1ccc(NC(C)=O)cc1S(=O)(=O)Nc1ccc2c(c1)OCCO2,5,1,-1,2,2.8,4059,3
CC(C)(C)C(=O)OC/C(N)=N/OC(=O)c1ccc(Cl)c(Cl)c1,0,-2,-2,10,4.7,5938,-16
CN1CC=C(/C=C/c2ccc(-c3ccccc3)cc2)CC1,93*,6,12,17,21,.,.
CCOc1ccccc1Nc1ncnc2ccccc12,-6,7,4,8,-14,3237,-19
O=c1[nH][nH]cc1C=Nc1ccccc1O,-1,3,.,.,12,2977,-13
O=C(CS(=O)(=O)Cc1ccccc1)Nc1cccnc1,2,-9,13,15,2.1,4213,-12
COc1ccc(NC(=O)Nc2nnc(-c3ccccc3F)s2)cc1,4,0,8,10,-2.0,4156,-66
